# AF4-AF9 inh: inhibitors of human MLL-AF4/AF9 interaction; AlphaScreen, biotin-AF4 peptide binding to FLAG-AF9; inhibition, % at 10 µM; hit rate 0.47% among 350,000; AID 651704;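 active = every replicate reaching a set inhibition limit, whatever the replicate mean, cut at about 25% in these data; inconclusive = mean inhibition reaches that limit but some replicates miss it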;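 note: 0% = plate neutral control median and 100% = total signal loss; the record names both 10 and 1 µM as test concentration; the first replicate is given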
# Target sequence (P42568 whole entry, looked up): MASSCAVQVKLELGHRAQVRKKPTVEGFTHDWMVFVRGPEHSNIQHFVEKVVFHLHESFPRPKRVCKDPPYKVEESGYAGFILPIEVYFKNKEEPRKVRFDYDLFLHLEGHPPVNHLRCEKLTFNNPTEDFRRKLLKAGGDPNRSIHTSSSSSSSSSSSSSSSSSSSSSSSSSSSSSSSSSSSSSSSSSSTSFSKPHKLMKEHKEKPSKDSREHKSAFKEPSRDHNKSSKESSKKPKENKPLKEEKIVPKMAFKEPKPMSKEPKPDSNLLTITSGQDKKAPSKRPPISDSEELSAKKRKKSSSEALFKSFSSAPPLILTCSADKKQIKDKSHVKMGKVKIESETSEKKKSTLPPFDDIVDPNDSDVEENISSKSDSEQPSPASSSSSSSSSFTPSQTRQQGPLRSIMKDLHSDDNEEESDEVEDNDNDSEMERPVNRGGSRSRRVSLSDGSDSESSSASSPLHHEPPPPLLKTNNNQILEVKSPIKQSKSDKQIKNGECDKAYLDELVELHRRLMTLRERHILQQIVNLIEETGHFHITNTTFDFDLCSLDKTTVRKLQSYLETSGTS
# UCH37 DUB inh: inhibitors of human deubiquitinating enzyme UCH37; Q9Y5K5; hit rate 0.33% among 330,000; purified proteasome/UCH37, Ub-AMC cleavage fluorescence; AID 588478; inhibition, % (test concentration not listed);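 active = mean of two replicates above 20%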;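 note: 0% = compound-free wells with enzyme and 100% = wells lacking proteasome; stock transfer was 100 nL into about 20 µL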
# Target sequence (Q9Y5K5 whole entry, looked up): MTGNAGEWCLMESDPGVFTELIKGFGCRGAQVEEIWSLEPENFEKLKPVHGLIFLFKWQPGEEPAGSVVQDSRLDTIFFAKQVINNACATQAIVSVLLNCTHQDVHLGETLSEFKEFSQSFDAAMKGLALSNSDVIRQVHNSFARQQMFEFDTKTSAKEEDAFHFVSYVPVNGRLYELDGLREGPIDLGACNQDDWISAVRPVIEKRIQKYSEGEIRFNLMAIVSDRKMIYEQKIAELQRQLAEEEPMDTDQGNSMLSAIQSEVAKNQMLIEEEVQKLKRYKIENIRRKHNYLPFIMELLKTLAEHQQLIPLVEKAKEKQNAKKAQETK
#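 System: Proteasome-associated human UCH37 deubiquitinase; Input: 0.15 nM proteasome in added enzyme buffer; Also added: Ub-AMC substrate from 1 µM stock; Incubation: 30 min compound-proteasome preincubation then 25 min substrate reaction, room temperature; Detection: fluorescence, ex 355 nm, em 460 nm; Read-out: % inhibition of Ub-AMC cleavage fluorescence; Benchmarks: no-proteasome and no-compound wells.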
# rRNA inh HTS: selective bacterial rRNA inhibition in E. coli | AID 720706 | GFP signal change (wild-type ribosome), % (test concentration not listed) | hit rate 1.6% among 350,000 | E. coli WT GFP vs humanized-ribosome RFP mutants, fluorescence, 24 h; active compounds read low; DMSO median 0, no signal -100;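 active = significant combined selectivity score with lowered wild-type GFP, culture density cut under 30%, mutant RFP and density less affected; inactive = any of these conditions unmet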; note: one replicate is shown; some compounds called inactive have numbers as strong as hits
# T cruzi inh: blocks replication of Trypanosoma cruzi; hit rate 1.4% among 300,000; inhibition, % (no concentration beside the values); T. cruzi beta-gal in NIH3T3, luminescence, 90 h;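 active = mean inhibition across valid replicates above about 55%, limit read from the data; inconclusive = mean below that limit but half or more replicates reach it; inactive = mean below it, under half of replicates reach it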;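 note: signal also drops with host cell toxicity which is not excluded here; 0% = plate median of DMSO wells and 100% = zero luminescence signal; higher percent means less beta-gal luminescence so fewer parasites; stock transfer was 50 nL into about 50 µL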
# A1 inh: inhibitors of the anti-apoptotic protein A1, read as caspase activation. MEF A1-2A-BIM cells, Caspase-Glo 3/7 luminescence, 3 h; percent of clofoctol response, vehicle zero. caspase activation, % (concentration not given with the values). hit rate 0.066% among 330,000;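 active = over half of replicate activation scores above 10%, or exactly half above 10 with the replicate mean above 10; inconclusive = replicate mean below 10 yet half the replicates above 10; inactive = over half of replicates below 10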;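 note: wells of about 30 µL received 50 nL stock; many hits fall short of the cut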
# Beta apoptosis: beta cell apoptosis inhibition. INS-1E cytokine-induced death, ATP luminescence, 48 h; percent of positive-control rescue, neutral wells zero. protection from apoptosis, % (no concentration beside the values). hit rate 0.8% among 300,000. AID 435005;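 active = all replicates at 75% or more, or half of them and the mean; inconclusive = half reach 75% but not the mean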;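 note: 0% = cytokine-treated negative control wells and 100% = positive control rescue; higher means more ATP so stronger rescue from cytokine killing; wells of about 40 µL received 100 nL stock; the first replicate is given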
# FGF22 binding: shifts melting point of recombinant human FGF22 | Q9HCT0 | calls only at 9.99 µM | recombinant FGF22 thermal shift, SYPRO orange fluorescence; percent of sucrose octasulfate shift, DMSO zero | hit rate 1.5% among 340,000;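 active = melting point raised past a set limit in the mean and every replicate; inconclusive = no clear call; three in four hits are not shown here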
# Target sequence (Q9HCT0 whole entry, looked up): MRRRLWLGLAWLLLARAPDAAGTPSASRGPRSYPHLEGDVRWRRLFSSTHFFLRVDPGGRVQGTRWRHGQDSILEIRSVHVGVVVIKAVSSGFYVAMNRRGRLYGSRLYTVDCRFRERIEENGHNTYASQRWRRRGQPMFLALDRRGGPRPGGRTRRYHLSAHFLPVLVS
# Ecoli growth: E. coli growth inhibition. Escherichia coli growth, OD600, 23 h; active compounds read low. OD600 absorbance (no concentration beside the values). hit rate 0.21% among 330,000;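 active = OD600 absorbance below the run mean of sample wells minus 3.6 SD, in any replicate, cut at about 0.56 in these data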;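 note: stock transfer was 300 nL into about 60 µL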
# rRNA inh HTS OD600: further read-out of rRNA inh HTS, marked with its call; OD600 change, %; measured here: OD600 growth;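 optical density of the mix in the first replicate; 0 = DMSO median and -100 = no signal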
# rRNA inh HTS RFP: second read-out of rRNA inh HTS, no call of its own (marks repeat the call); RFP signal change, %; measured here: RFP humanized mutant strains;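 first replicate; 0 = DMSO median and -100 = no signal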
# The depositor's hits bear a star; i = inactive; ? = inconclusive; nt = not tested or not shown. A portion of the library. The share of hits here may be higher or lower than overall.
SMILES,AF4-AF9 inh,UCH37 DUB inh,rRNA inh HTS,rRNA inh HTS OD600,rRNA inh HTS RFP,T cruzi inh,A1 inh,Beta apoptosis,FGF22 binding,Ecoli growth
O=C(NCc1cccs1)C1CCC(CNS(=O)(=O)c2ccccc2)CC1 (centres undefined),-4.6,0.3,12,17,-1.7,2,0.7,-4,i,0.67
CCn1cc(C(=O)NCc2ccccc2)c(=O)c2cc(F)c(N3CCN(C(=O)c4ccco4)CC3)cc21,nt,-66,nt,nt,nt,24,-0.5,nt,nt,0.56
N#Cc1cc2c(nc1SCc1cccnc1)CCC2,nt,1.3,nt,nt,nt,10,0.3,-3,nt,0.7
CCSc1nnc(NC(=O)c2nn(C(C)C)c(=O)c3ccccc23)s1,nt,4.9,nt,nt,nt,-6,-0.5,nt,nt,0.68
CC(=O)c1ccc2c(c1)OCCOCCOCCOCCO2,nt,0.7,nt,nt,nt,-20,-0.3,-2,nt,0.64
Cc1ccc(NS(=O)(=O)c2ccc3oc(=O)ccc3c2)cc1Cl,1.3,0.2,-24,-44,-10.0,9,-0.9,0,i,0.69
Nc1nonc1-n1nnc(C(=O)N/N=C/c2ccc(OCc3ccccc3F)cc2)c1CNc1ccccc1,-3.0,nt,-1,2,-0.8,-24,-1.0,2,i,nt
Cc1ccc(NC(=O)CCS(=O)(=O)c2cc3[nH]c(=O)c(=O)[nH]c3cc2C)cc1,1.1,2.7,12,5,-2.5,-10,0.6,-12,i,0.64
O=C1CN(C(=O)COC(=O)CCS(=O)(=O)c2ccccc2Cl)c2ccccc2N1,2.2,2.3,7,3,1.9,nt,1.4,-6,i,0.7
CN(CCO)S(=O)(=O)c1ccc2c(c1)C(=O)c1cc(S(=O)(=O)N(C)CCO)ccc1-2,-0.1,0.6,8,4,0.8,-8,1.9,-9,i,0.7
CC1(C)CC(=O)C2=C(C1)N(c1ccc(F)cc1)C(N)=C(C#N)C2c1cccs1 (centres undefined),nt,1.5,nt,nt,nt,-7,-0.1,-10,nt,0.73
C/C(=N\NC(=O)c1ccc(CSc2nncn2C)cc1)c1ccc2ccccc2c1,2.7,nt,-3,2,-3.4,1,-0.3,-5,i,nt
COc1cc(C(=O)NCCOc2ccccc2C)c(Br)c(OC)c1OC,1.6,-0.8,-12,-12,-3.7,4,0.8,-1,i,0.69
O=C(CNC(=O)c1ccc2c(c1)S(=O)(=O)N=C1CCCCCN12)Nc1ccc(F)c(F)c1,-10,5.2,1,-2,0.2,-2,-0.8,-3,i,0.67
CC(C)CC(NC(=O)c1ccc(Cl)cc1Cl)C(=O)O (centres undefined),nt,0.8,nt,nt,nt,4,-1.9,-8,nt,0.65
Cc1ccc(NS(=O)(=O)c2cccc(C(=O)OCC(=O)NCc3ccco3)c2)cc1,nt,-3.9,nt,nt,nt,4,-0.5,-5,nt,0.74
CSc1ccc(Cl)c(C(=O)NNC(=O)c2csc(N3CCOCC3)n2)c1,-1.2,3.8,16,6,3.8,-4,0.4,0,i,0.69
O=C(O)/C=C/c1coc2ccccc2c1=O,1.3,1.4,3,0,-3.6,6,0.0,-5,i,0.71
CCOC(=O)C1CCCN(C(=O)c2cn(CC)c3ccc(S(=O)(=O)N(C)C)cc3c2=O)C1 (centres undefined),-2.7,6.2,5,-4,-0.6,nt,?,-3,i,0.76
CC(=O)c1c(C)[nH]c(C(=O)NNC(=O)COc2ccc(Cl)cc2C)c1C,-4.4,1.1,2,-8,-1.8,-10,-0.8,nt,nt,0.66
Cc1nc2c(C)cccn2c(=O)c1NC(=O)COc1ccccc1,0.1,7.2,25,13,5.6,0,-0.1,-5,i,0.68
C/C(=N\n1c(C)cc(C)c(C#N)c1=O)c1cccs1,16,nt,9,-4,-5.7,-8,0.7,-1,i,nt
Cc1cc(Cl)ccc1NC(=S)N1CCN(Cc2ccc3c(c2)OCO3)CC1,nt,3.6,-21,-38,-7.0,3,0.7,4,nt,0.68
COc1ccc(C(=O)CCN2CCN(c3ccccc3F)CC2)cc1,0.5,0.4,16,6,-1.1,63*,0.4,-12,i,0.64
CC(NC(=O)c1ccccc1NC(=O)CN1CCc2ccccc2C1)c1ccccc1 (centres undefined),2.3,-2.8,-4,12,8.7,31,0.7,-3,i,0.67
SMILES,AF4-AF9 inh,UCH37 DUB inh,rRNA inh HTS,rRNA inh HTS OD600,rRNA inh HTS RFP,T cruzi inh,A1 inh,Beta apoptosis,FGF22 binding,Ecoli growth
COc1ccc(OC)c(S(=O)(=O)N(C)CC(=O)N2CCOCC2)c1,-1.5,0.4,8,11,2.6,-6,0.6,-2,i,0.67
CCCOc1ccc(N2CC(C(=O)Nc3ccccn3)CC2=O)cc1 (centres undefined),nt,2.5,nt,nt,nt,-2,-0.3,-13,nt,0.67
COc1cc(S(=O)(=O)Nc2ccc(C)cc2)ccc1NC(=O)c1ccncc1,2.1,6.5,nt,nt,nt,1,-1.7,6,i,0.71
COc1ccc(NS(=O)(=O)c2ccc3oc(=O)c4[nH]c(=O)c(=O)n(C)c4c3c2)cc1,-1.7,-17,7,18,0.5,-23,-0.2,-7,i,0.69
CCCc1nc2ccccc2c(=O)n1CCc1ccccc1,-1.5,5.9,-35,-46,-6.9,14,-0.2,0,i,0.66
CCOC(=O)c1nnc(-c2ccccc2)nc1Sc1c(Cl)cccc1Cl,nt,0.0,nt,nt,nt,-8,1.0,-25,nt,0.81
OCCOCCn1c(C(CO)Nc2nc(-c3ccccc3Br)cs2)nc2ccccc21 (centres undefined),-4.1,2.8,-2,-5,-2.4,-7,0.2,4,i,0.69
CCOC(=O)C1CN(S(=O)(=O)c2ccc(C)cc2)CCN1S(=O)(=O)c1ccc(C)cc1 (centres undefined),0.3,2.4,-16,-6,-1.5,-4,-1.3,nt,i,0.67
Nc1ccnn1Cc1ccc(Br)s1,nt,3.6,nt,nt,nt,-4,-0.1,nt,nt,0.72
CCN(CC(=O)NCc1cccs1)C(=O)c1cc(S(=O)(=O)N2CCOCC2)ccc1C,nt,6.4,nt,nt,nt,8,0.4,-2,nt,0.72
O=C1COc2ccccc2N1Cc1ccccc1Cl,nt,0.5,nt,nt,nt,-4,-0.1,-3,nt,0.66
C#CCOCCOCCOCCNc1nc(N2CCN(C(=O)[C@H](Cc3cc4ccccc4[nH]3)n3cc([C@@H](N)C(C)CC)nn3)CC2)nc(N2CCN(C(=O)[C@H](CCCCN)n3cc([C@@H](N)CO)nn3)CC2)n1 (some centres undefined),nt,4.1,nt,nt,nt,-9,1.2,-5,nt,0.81
C=CCNc1nc(Nc2ccccc2F)nc(OCC)n1,-0.5,nt,16,9,1.2,10,-1.0,4,i,nt
Clc1cccc(Nc2nc(-c3ccncc3)nc3ccccc23)c1,-2.8,-10.0,1,6,-1.7,43,-0.4,21,i,0.7
CC(C)=CCC12Oc3cc(O)ccc3C1(O)Oc1cc3c(c(O)c1C2=O)C=CC(C)(C)O3 (centres undefined),nt,2.2,nt,nt,nt,19,-0.8,-5,nt,0.71
COc1ccc(NC(=O)CCC(=O)c2cc(C)sc2C)cc1,-4.5,7.9,-6,-12,2.6,nt,nt,nt,i,0.68
Cn1nnnc1SCCNCc1cccc2ccccc12,nt,2.3,nt,nt,nt,70*,0.6,1,nt,0.69
CCOC(=O)C1CCCc2c1[nH]c1c(C(=O)O)cccc21 (centres undefined),nt,-1.2,nt,nt,nt,-18,-0.7,-5,nt,0.68
COc1ccc(-c2noc3c2-c2nc(-c4c(F)cccc4F)sc2CC3)cc1,7.1,2.1,10,7,-0.7,-3,-0.2,4,i,0.79
N#C/C(=C\Nc1ccc2cn[nH]c2c1)c1nc(-c2ccccc2)cs1,-1.4,1.2,27,12,2.4,45,nt,nt,nt,0.71
O=C(NCc1cc(C(F)(F)F)cc(C(F)(F)F)c1)C1CC(c2cccc([N+](=O)[O-])c2)=NO1 (centres undefined),-3.0,0.6,1,11,-4.0,11,0.3,-1,i,0.68
C=C1C(O)C[C@H]2C(=C)CCC3[C@H](OC(=O)[C@]3(O)CO)[C@@H]12 (some centres undefined),-1.0,0.8,8,7,-2.5,-9,0.7,-10,i,nt
Cc1nc(SCc2ccc(Cl)c(Cl)c2)n[nH]1,-16,6.1,-21,-21,-2.6,1,0.6,11,i,0.71
COC(=O)COc1ccc(=O)n(-c2ccccc2)n1,nt,0.0,nt,nt,nt,-4,1.3,0,nt,0.71
COc1ccc(O)c(C(=O)c2cnn(S(=O)(=O)c3ccc(C)cc3)c2)c1,0.2,-3.3,2,-1,0.6,nt,-0.4,-2,i,0.65
SMILES,AF4-AF9 inh,UCH37 DUB inh,rRNA inh HTS,rRNA inh HTS OD600,rRNA inh HTS RFP,T cruzi inh,A1 inh,Beta apoptosis,FGF22 binding,Ecoli growth
Cc1ccc(CNC(=O)CN(Cc2cccs2)C(=O)C2(C)CC(=O)N=C3C=CC=CN32)cc1 (centres undefined),-1.3,-358,4,3,-8.7,-1,0.0,-6,i,0.63
Oc1ccc(Cl)cc1CNCC1CCCO1 (centres undefined),nt,6.2,nt,nt,nt,-6,-0.1,0,nt,0.68
CCOC(=O)c1cnc(Nc2nc3ccccc3o2)nc1CSC(=S)N1CCCCC1,1.8,6.3,14,13,7.7,38,-0.3,40,i,0.73
COC(=O)c1ccccc1NC(=S)N1CCOCC1,-5.5,2.0,12,9,3.3,-19,0.5,6,i,0.62
Cc1ccc(-n2c(CNc3ccc(F)cc3)nnc2SCC(=O)N2CCCC2)cc1,nt,5.7,nt,nt,nt,4,1.0,-11,nt,0.73
c1ccc(-c2nnc(CN3CCCc4ccccc43)o2)cc1,nt,-5.6,nt,nt,nt,27,0.0,0,nt,0.78
N#Cc1nc(Cl)c(Cl)c(NN)c1Cl,nt,1.5,-41,-47,-8.6,-14,-0.7,6,i,0.66
COc1ccc(/C=C(\NC(=O)c2ccccc2)C(=O)NC2CCS(=O)(=O)C2)cc1 (centres undefined),2.6,4.5,18,15,-0.1,-3,0.2,-4,i,0.7
O=C(Nc1cccc(-c2cccc(Cl)c2)c1)C1CCN(Cc2ccc(CO)o2)CC1,-4.6,1.5,-59,-76,-19,6,-0.6,nt,i,0.72
Cn1nc(-c2ccc(Cl)cc2)cc1NC(=O)Nc1ccccc1,5.3,2.4,-44*,-19*,-8.5*,3,-0.8,-5,i,0.7
C/C(=N/NC(=O)c1cc(-c2ccccc2)nc2c(Cl)cccc12)c1cccnc1,1.8,nt,-13,-22,-2.1,41,-0.4,14,i,nt
COCCN(C(=O)COC(=O)CSc1ccccc1)c1c(N)n(Cc2ccccc2)c(=O)[nH]c1=O,0.5,3.6,8,8,0.5,-8,0.3,-2,i,0.65
CC(C)CCC(C(=O)O)C(C)CC(=O)Nc1ccn(-c2ccccc2)n1 (centres undefined),4.0,5.3,6,9,-1.2,-15,-0.1,-5,i,0.71
O=C(N=c1nc2ccccn2s1)c1ccccc1,nt,2.5,nt,nt,nt,-5,-9.1,14,nt,0.73
